Compound activity deposited in PubChem by National Center for Advancing Translational Sciences (NCATS).
2A firefly: lowers the firefly signal of an FMDV 2A StopGo reporter; HEK cells with a luciferase reporter of 2A StopGo recoding; Potency, µM (doses to about 57.5 µM), for the others: at the top dose signal change, negative = less light; hit rate 0.23% among 120,000; active = well fitted falling curve with a large enough effect; inconclusive = small, poorly fitted or top-dose-only effect; inactive = no such curve, though single readings can be large or run the other way; note: nearly all actives have a fitted effect of over 60% in size; overnight with compound
StopGo RLuc: FMDV 2A StopGo reporter, Renilla signal; HEK cells with a luciferase reporter of 2A StopGo recoding; Potency, µM (series often up to 57.5 µM), without a hit: top-dose signal change, negative = less light; hit rate 0.32% among 120,000; active means well fitted falling curve with a large enough effect; inconclusive means small, poorly fitted or top-dose-only effect; inactive means no such curve, though single readings can be large or run the other way; note: nearly all actives have a fitted effect of over 55% in size; overnight with compound
Active calls of the source: *; ? = inconclusive; [ ] = remark or other dose. % is set by controls: 0 for no effect and ±100 for the full control effect; potency is the fitted concentration of half-maximal effect.

Sample of the layout (3 entries):
SMILES	2A firefly	StopGo RLuc
COC(=O)c1cc(Nc2nc3ccccc3nc2NS(=O)(=O)c2ccc(C)cc2)ccc1Cl	452%[activator]	-1%
O=C(Nc1ccc2[nH]c(=O)[nH]c2c1)c1nn(-c2ccccc2)c2c1CCCCC2	-2%	1%
O=[N+]([O-])c1cc(C(F)(F)F)ccc1N1CCN(CCOc2cccc(Cl)c2)CC1	2%	-8%[1.06 µM]

This part in full, from the first entry:
SMILES	2A firefly	StopGo RLuc
COC(=O)c1cc(Nc2nc3ccccc3nc2NS(=O)(=O)c2ccc(C)cc2)ccc1Cl	452%[activator]	-1%
O=C(Nc1ccc2[nH]c(=O)[nH]c2c1)c1nn(-c2ccccc2)c2c1CCCCC2	-2%	1%
O=[N+]([O-])c1cc(C(F)(F)F)ccc1N1CCN(CCOc2cccc(Cl)c2)CC1	2%	-8%[1.06 µM]
Cc1ccc(NC(=O)CSc2nc(-c3ccco3)cc(C(F)(F)F)n2)cc1C	27%	35%[activator]
CCn1c(SCC(=O)Nc2cc(C)c(Cl)cc2OC)nnc1-c1cccc(OC)c1	-15%	-17%
CCCCc1ccc(NC(=O)c2ccc(=O)n(Cc3cccc(C)c3)c2)cc1	?	?
CN(C)CCN(Cc1ccccc1)S(=O)(=O)c1csc(C(N)=O)c1	-24%	-6%
O=C(Nc1ccc2c(c1)OCO2)c1cccn(Cc2ccc(F)cc2)c1=O	10%	14%
O=C(Cc1ccccc1)NC1CCN(c2ccccc2S(=O)(=O)C(F)(F)F)CC1	-9%	-8%
Cc1nc2nc(NCc3c(Cl)cccc3Cl)[nH]n2c(=O)c1C	5%	11%
CNC(=O)c1nc(-c2ccc(COc3ccc4c(c3)OCO4)cc2)no1	12%	-9%
CCCOC(=O)c1[nH]c2c(c1C)C(=O)CC(c1ccccc1)C2 (stereo not given)	71%[activator]	61%[activator]
CN1CCN(C(=O)c2cc(=O)c3cc(Cl)ccc3o2)CC1	3%	-2%
OC(CSCCc1ccccn1)C(O)CSCCc1ccccn1 (stereo not given)	-1%	7%
CCCN(CCC)CCCNC(=O)C1CCN(S(=O)(=O)CC)CC1	-18%	-10%
COc1ccc(C2CC(c3cccc(NS(C)(=O)=O)c3)=NN2C(=O)c2cccs2)cc1OC (stereo not given)	65%[activator]	95%[activator]
COc1ccc(CNC(=O)c2ccc3c(Cl)c4c(nc3c2)CCCC4)c(OC)c1	-20%	-8%
CC(C)Cn1c(=O)c2sccc2n2c(CCCC(=O)NC3CCCCC3)nnc12	-10%	-11%
O=C(NCc1cccs1)c1nn(-c2ccccc2Cl)nc1CO	?	21%
CCC1=C(c2ccc(C)cc2)S(=O)(=O)N=C1N1CCC(C(=O)Nc2ccccc2C(=O)OC)CC1	-13%	-1%
COCc1n[nH]c(=S)n1Cc1ccc(Cl)cc1	7%	4%
COc1cc(OC)c(OC)cc1/C=C1\Oc2cc(OS(=O)(=O)c3ccc(C)cc3)ccc2C1=O	-3%	11%
COC(=O)c1cc(NC(=O)c2cc3sccc3n2Cc2ccc(Cl)cc2)cc(C(=O)OC)c1	-13%	-6%
CCOc1ccccc1NS(=O)(=O)c1c(-c2ccc(C)cc2)csc1C(=O)OC	-2%	47%[activator]

5 entries from above, with two lines to a compound:
Each structure is followed by: 2A firefly	StopGo RLuc
CC(C)Cn1c(=O)c2sccc2n2c(CCCC(=O)NC3CCCCC3)nnc12
 : -10%	-11%
O=C(NCc1cccs1)c1nn(-c2ccccc2Cl)nc1CO
 : ?	21%
COc1ccc(CNC(=O)c2ccc3c(Cl)c4c(nc3c2)CCCC4)c(OC)c1
 : -20%	-8%
OC(CSCCc1ccccn1)C(O)CSCCc1ccccn1 (stereo not given)
 : -1%	7%
CCOc1ccccc1NS(=O)(=O)c1c(-c2ccc(C)cc2)csc1C(=O)OC
 : -2%	47%[activator]

More compounds:
SMILES	2A firefly	StopGo RLuc
COc1ccccc1CNc1nc2ccccc2c2nc(-c3cccc(C)c3)nn12	134%[activator]	-11%
CCc1cc(=O)oc2cc(OCC(=O)NCc3ccncc3)ccc12	11%	3%
Cc1cc2c(c(=O)n1Cc1cccnc1)C(c1cc3c(cc1Br)OCO3)C(C#N)=C(N)O2 (stereo not given)	2%	0%
COc1ccc2c(C)c(CCC(=O)Nc3ccc(Br)c(C)c3)c(=O)oc2c1	-3%	-13%
Cc1ccc(NC(=O)Cn2nc(C)c3nn(-c4ccc(Cl)cc4)c(C)c3c2=O)cc1C	-10%	-13%
COc1ccc(NC(=O)CCCN2C(=O)CCn3nc(-c4cn(C)c5ccccc45)cc32)cc1OC	0%	-5%
CCOC(=O)c1cc2c(=O)n3ccccc3nc2n(C)c1=NC(=O)c1c(-c2ccccc2Cl)noc1C	-8%	-11%
Cc1sc(NC(=O)CSc2nc3ccccc3o2)nc1-c1ccccc1	?	?
O=C(NCCc1ccccc1)c1ccc(CSc2nc3cccnc3n2Cc2ccccc2)cc1	54%[activator]	53%[activator]
CCOc1ccc2nc(N3CCCC(C(=O)Nc4ccccc4CC)C3)sc2c1 (stereo not given)	10%	-6%
O=C(Nc1ccc(Cl)cc1F)c1ccc(-c2ccccc2)cc1	119%[activator]	5%
Cc1ccc2nc(-c3cccnc3)cc(C(=O)Nc3cccc(C)n3)c2c1	0%	28%
CCC(C)N(Cc1ccccc1)C(=O)CCc1cccs1 (stereo not given)	1%	2%
CCOc1ccc(NC(=O)c2oc3ccccc3c2NC(=O)Cc2cccs2)cc1	62%[activator]	3%
Cc1nc2nc(SCC(=O)NCc3ccccc3)nn2c(C)c1Cc1ccccc1Cl	-11%	6%
Cc1nc2sc(C(=O)OCC(=O)Nc3c(C)cccc3C)c(C)c2c(=O)[nH]1	3%	0%
COc1ccc(S(=O)(=O)Nc2cccc(-c3ccc(N4CCOCC4)nn3)c2)cc1F	104%[activator]	224%[activator]
COc1cccc(C(CNC(=O)C2CCN(S(=O)(=O)c3ccc4ccccc4c3)CC2)N(C)C)c1 (stereo not given)	55%[activator]	2%
NS(=O)(=O)Cc1ccc(CNC(=O)COc2ccccc2)cc1	11%	-8%
O=C(CSc1oc(-c2ccc(F)cc2)nc1S(=O)(=O)c1ccc(Cl)cc1)c1ccccc1	-21%	71%[activator]
Cc1cc(C)cc(NC(=O)CN(c2cc(C(F)(F)F)ccc2Cl)S(=O)(=O)c2ccccc2)c1	-11%	5%
CN(C)C1(CNC(=O)Cc2n[nH]c(=O)c3ccccc23)CCCCC1	6%	-4%
CCCN1CCN(CCCNC(=O)c2cc3c(Cl)nc4ccccc4c3s2)CC1	-16%	-8%
CCOC(=O)Cn1c(CN(Cc2ccccc2)Cc2ccccc2)nc2c1c(=O)[nH]c(=O)n2C	-14%	-17%
O=C(Nc1cccc(S(=O)(=O)N2CCCC2)c1)c1nn(-c2ccccc2)c(=O)c2ccccc12	-1%	-9%
Cc1cc(C)c2cccc(NC(=O)C(C)N3C(=O)c4ccccc4C3=O)c2n1 (stereo not given)	8%	-13%
CC(=O)Nc1nonc1-c1nnc(SCC(=O)N(C)c2ccccc2)n1C	-15%	-12%
CC(=O)Nc1c(S(=O)(=O)c2ccc(C)cc2)c(C)c(C)n1Cc1ccccc1	-11%	30%[activator]
COc1ccc(-c2[nH]c(-c3ccccc3)nc2SCC(=O)Nc2ccc3c(c2)OCO3)cc1	-4%	43%[activator]
COc1cccc(-c2nn(C)c3sc(C(=O)NCc4ccc(OC)cc4OC)cc23)c1	8%	-11%
Nc1nnnn1NCc1ccc(-c2ccc(F)c(Cl)c2)o1	52%[activator]	109%[activator]
CCN(CC)S(=O)(=O)c1ccc(C(=O)NCCSc2c(-c3ccc(OC)cc3)[nH]c3ccccc23)cc1	8%	-1%
CC(C)C(C)(C#N)NC(=O)CN(C)Cc1ccccc1 (stereo not given)	21%	4%
CCOc1cc(/C=C/C(=O)c2cccc(Cl)c2)cc(Cl)c1O	10%	1%
Cc1cccn2c(=O)cc(CSc3ccccc3NC(=O)c3ccccc3Cl)nc12	-7%	41%[activator]
Nc1nc(SCc2coc(-c3cccc(Cl)c3)n2)n[nH]1	119%[activator]	4%

Individual results from the entries so far:
CC(=O)Nc1nonc1-c1nnc(SCC(=O)N(C)c2ccccc2)n1C in 2A firefly → -15%
COc1ccc(-c2[nH]c(-c3ccccc3)nc2SCC(=O)Nc2ccc3c(c2)OCO3)cc1 in 2A firefly → -4%
CC(=O)Nc1c(S(=O)(=O)c2ccc(C)cc2)c(C)c(C)n1Cc1ccccc1 in StopGo RLuc → 30%[activator]
Cc1cc(C)c2cccc(NC(=O)C(C)N3C(=O)c4ccccc4C3=O)c2n1 (stereo not given) in StopGo RLuc → -13%
Cc1cccn2c(=O)cc(CSc3ccccc3NC(=O)c3ccccc3Cl)nc12 in StopGo RLuc → 41%[activator]
CC(C)C(C)(C#N)NC(=O)CN(C)Cc1ccccc1 (stereo not given) in 2A firefly → 21%

Next part
SMILES	2A firefly	StopGo RLuc
CCOC(=O)CN1C(=O)c2cccnc2Oc2ccccc21	0%	9%
CCOc1ccccc1CNC(=O)c1cc2c(=O)n(Cc3ccccc3)ccc2nc1C	?	?
O=C(Nc1nc2c(s1)CCCCC2)C1CC(=O)N(C2CC2)C1 (stereo not given)	53%[activator]	-2%
COc1ccccc1NC(=O)CSc1nnc(NC(=O)NC2CCCCC2)s1	51%[activator]	-8%
CC(C(=O)NC1CCCC1)N1CCC(c2nc3ccccc3o2)CC1 (stereo not given)	-30%	-32%
CC(C)CCNC(=O)c1cc2cc(N(C)S(C)(=O)=O)ccc2s1	3%	?
COc1ccc(C(=O)NCCn2cc(SCc3ccc(C(F)(F)F)cc3)c3ccccc32)cc1OC	17%	0%
O=C(NCCCc1nc2ccccc2n1Cc1ccc(Cl)cc1Cl)c1ccco1	-23%	-14%
Cc1ccc(Oc2ccc(Cl)cc2NC(=O)Cn2cnc3c2c(=O)n(C)c(=O)n3C)cc1	7%	-17%
COc1ccc(NC(=O)Cn2c(=O)n(Cc3ccccc3OC)c(=O)c3cccnc32)cc1Cl	-13%	2%
COc1cc(OC)c(OC)cc1CN1CCc2nc(Nc3ccc4c(c3)OCCO4)ncc2C1	4%	-15%
COc1ccccc1C(=O)N/C(=C\c1cn(S(=O)(=O)N(C)C)c2ccccc12)C(=O)NCCCn1ccnc1	-7%	139%
O=S(=O)(Nc1nc2ccccc2nc1NCc1ccccc1)c1ccc(F)cc1	-7%	121%[activator]
CCCn1c(=O)c2c(nc(-n3nc(C)c(C)c3C)n2CC)n(C)c1=O	3%	-4%
COc1ccccc1NC(=O)Cn1nc(-c2ccc(C)c(S(=O)(=O)N3CCOCC3)c2)ccc1=O	6%	0%
O=C(CCSc1nccc(C(F)(F)F)n1)NC1CCCCC1	0%	3%
CC(C)c1ccc(/C=C(\C#N)C(=O)NCCc2ccccc2)cc1	13%	11%
Cc1ccc2occ(CC(=O)N(Cc3ccc(Cl)cc3)C3CCS(=O)(=O)C3)c2c1 (stereo not given)	-22%	11%
Cn1c(=O)[nH]c(=O)c2c1nc(Sc1ccccc1)n2CCc1ccccc1	7%	-1%
O=C(COc1ccc(Cl)cc1Br)N1CCC(c2ccccc2)=N1	20%	12%
C/C(CC(=O)Nc1ccc(Cl)cc1)=N\NC(=O)c1cccnc1	62%[activator]	24%
CCOC(=O)c1cc(NS(=O)(=O)c2ccc3ccccc3c2)cc(C(=O)OCC)c1	4%	24%
O=C(CO)[C@@H](O)[C@H](O)[C@@H](O)CO	-21%	-11%
Cc1ccc(NC(=O)CC2CC3CCC2C3)c(Br)c1 (stereo not given)	11%	24%
Cc1ccccc1Nc1c(-c2cccc(Cl)c2)nc2ncccn12	-13%	-9%
O=C(NCCCN1CCN(c2cccc(Cl)c2)CC1)c1ccc2nc(Cc3ccccc3)oc2c1	?	?
Cc1cc(-c2nn3c(-c4cccs4)nnc3s2)n(C)n1	0%	12%
O=C(c1cc(F)cc(F)c1)N1CCC(c2nc(-c3ccc(S(=O)(=O)N4CCCC4)cc3)no2)CC1	25%	-3%
O=C(/C=C/c1cccc(Br)c1)c1ccc(O)cc1	0%	25%
CCc1nn2c(=O)cc(CN(C)C3CCCCC3)nc2s1	8%	-5%
Cc1ccc(/C=C(/C#N)C(=O)NC2CCCCC2)cc1C	96%[activator]	57%[activator]
COc1ccccc1S(=O)(=O)Cc1ccc(C(=O)N2CCN(c3cc(Cl)ccc3C)CC2)o1	-14%	-8%
Cn1c(=O)c2c(nc(NCCCO)n2Cc2ccccc2F)n(C)c1=O	-13%	-26%
NCC1CCN(CCO)C1 (stereo not given)	-3%	-1%
CC(C)(C)c1ccc(C(=O)Nc2ccc(Br)cc2F)cc1	189%[activator]	18%
Cc1nn(C)c2sc(C(=O)NCc3ccccc3)cc12	39%[activator]	19%
COC(=O)Cn1c(=O)c2c(nc(-n3nc(C)c(C)c3C)n2C)n(C)c1=O	-10%	4%
N#C/C(=C/c1cccc(O)c1)C(=O)c1c[nH]c2cc(F)ccc12	-14%	-13%
O=C(O)CCSc1ccccc1Br	3%	3%
O=C(Cn1cc(SCc2cccc(F)c2)c2ccccc21)N1CCOCC1	138%[activator]	111%[activator]
CC(C)c1ccccc1NC(=O)c1csc2c1CCCC2	23%	-10%
COc1cccc(N2C(=O)CSC23C(=O)N(Cc2ccccc2F)c2ccccc23)c1 (stereo not given)	-16%	4%
CCC(C)(C)NCc1cc(=O)oc2c(C)c(O)ccc12	10%	3%
O=C(Nc1cccc2c1CCCC2)c1cc(Br)cnc1Cl	3%	13%
Clc1ccc(CCNc2ncnc3c2c(-c2ccccc2)cn3-c2ccccc2)cc1	-14%	-8%
COCCN1C(=O)C(=O)/C(=C(/O)c2ccc(OC(C)C)c(C)c2)C1c1ccc(Br)cc1 (stereo not given)	-6%	-4%
Cc1ccc(NC(=O)NC(C)c2c(-n3cccc3)sc(C)c2C)cc1F (stereo not given)	0%	5%
COc1ccc(OC)c(NCc2cccn2-c2nnc(N3CCCCC3)s2)c1	-25%	-27%
COc1cccc(NC(=O)Cn2c(=O)n(CCCCC(=O)NCc3ccccc3Cl)c(=O)c3ccccc32)c1	6%	18%

A portion of the library (hit frequency here may not be typical).
